Screens from PubChem.
Vaccinia Venus – qHTS for Stage-Specific Inhibitors of Vaccinia Orthopoxvirus: Venus Reporter Primary qHTS | 330,000 tested, 0.46% active | Potency, µM (highest dose often 36.5 µM), inactives show at the top dose activity change, negative = inhibition, hits mostly inhibitors | Vaccinia virus Venus reporter expression, fluorescence; active means well fitted inhibition curve with a large enough effect; inconclusive means small, poorly fitted or top-dose-only effect; inactive means no such curve, though single readings can be large or run the other way; tested in A549 cells; note: nearly all actives have a fitted effect of over 30% in size; inactives centre near -10
Vaccinia mCherry – qHTS for Stage-Specific Inhibitors of Vaccinia Orthopoxvirus: mCherry Reporter Primary qHTS | Vaccinia virus mCherry reporter infection, fluorescence; about a quarter of the inactives have no number | Potency, µM (highest dose often 36.5 µM), for the others: at the top dose activity change, negative = inhibition, actives largely listed as inhibitors | 310,000 tested, 0.63% active; active = well fitted inhibition curve with a large enough effect; inconclusive = small, poorly fitted or top-dose-only effect; inactive = no such curve, though single readings can be large or run the other way; tested in A549 cells; note: nearly all actives have a fitted effect of over 35% in size; inactives centre near -10
An asterisk follows results filed as active; & = joins results of further samples; [ ] = dose if it differs, or a comment. % is set by controls: 0 for no effect and ±100 for the full control effect; potency is the fitted concentration of half-maximal effect.

Screening Cc1ccc(C)c2[nH]c(=O)c(CN(CC3CCCO3)C(=S)NCc3ccco3)cc12 (configuration not stated) returned Vaccinia Venus -21% and Vaccinia mCherry -4%.
O=C(COc1ccc2c(-c3ccccc3)cc(=O)oc2c1)NCCCn1ccnc1 was read as Vaccinia Venus 6% and Vaccinia mCherry -5%.
For COc1ccc(OCCCC(=O)Nc2nccs2)cc1 the results were Vaccinia Venus 5% and Vaccinia mCherry -5%.
`CCOc1nc(OCC)c2[nH]c(C(=O)O)c(Br)c2n1` gave Vaccinia Venus -5% and Vaccinia mCherry -12%.
`O=S(=O)(c1ccc2ccccc2c1)N1CCN(CCO)CC1` gave Vaccinia Venus 2% and Vaccinia mCherry 3%.
For Cc1ccccc1Cn1c(CN2CCC(C(=O)NCCN(C)C)CC2)cc2ccccc21 the results were Vaccinia Venus -5%[7.34 µM] and Vaccinia mCherry inactive[7.34 µM].
O=C1c2ccc([N+](=O)[O-])cc2C(=O)N1Cc1cccnc1 was read as Vaccinia Venus 16% and Vaccinia mCherry inactive.
Screening COP(=O)(OC)C(Nc1ccc(C)cc1)c1ccc(Br)cc1 (configuration not stated) returned Vaccinia Venus -11% and Vaccinia mCherry -25%.
Screening C=CCOc1ccc(Br)cc1CNCCCN1CCOCC1 returned Vaccinia Venus -17% and Vaccinia mCherry -4%.
O=C(/C=C/Nc1ccc(F)c(Cl)c1)c1ccco1 was read as Vaccinia Venus inconclusive.
`Cc1ccc(S(=O)(=O)N2CCOCC2)cc1C(=O)OC(C)C(=O)c1ccccc1` (configuration not stated) gave Vaccinia Venus -16% and Vaccinia mCherry inconclusive.
`CC1=C(C(=O)OCc2ccccc2)C(c2ccccc2-c2ccccc2)NC(=O)N1CCCCCC(=O)O` (configuration not stated) gave Vaccinia Venus -15% and Vaccinia mCherry inactive.

Next part (3 carried over from the part before).
O=C(/C=C/Nc1ccc(F)c(Cl)c1)c1ccco1 was read as Vaccinia Venus inconclusive.
`Cc1ccc(S(=O)(=O)N2CCOCC2)cc1C(=O)OC(C)C(=O)c1ccccc1` (configuration not stated) gave Vaccinia Venus -16% and Vaccinia mCherry inconclusive.
`CC1=C(C(=O)OCc2ccccc2)C(c2ccccc2-c2ccccc2)NC(=O)N1CCCCCC(=O)O` (configuration not stated) gave Vaccinia Venus -15% and Vaccinia mCherry inactive.
Screening C/C(=N\NC(=S)NCc1ccccc1)c1ccc2ccccc2c1 returned Vaccinia Venus -2% and Vaccinia mCherry inactive.
`CCOc1ccc(NC(=O)COC(=O)C2(C)CC2(Cl)Cl)c([N+](=O)[O-])c1` (configuration not stated) gave Vaccinia Venus -14% and Vaccinia mCherry -1%.
For CCOc1cc(NC(=S)NCCCOC)c(OCC)cc1NC(=O)c1ccco1 the results were Vaccinia Venus -19% and Vaccinia mCherry -18%.
For Nc1c(C(=O)CCC(=O)O)oc2ccc(Cl)cc12 the results were Vaccinia Venus 2% and Vaccinia mCherry -9%.
Cc1ccc(C2C3=C(CC(C)(C)CC3=O)OC3=C2C(=O)CC(C)(C)C3)cc1 was read as Vaccinia Venus -13% and Vaccinia mCherry 0%.
Screening COC(=O)c1cccc(NC(=O)Cn2cnc3c2c(=O)n(C)c(=O)n3C)c1 returned Vaccinia Venus -17% and Vaccinia mCherry inactive.
For CC12CCC(=O)N1C(C(=O)NNC(=O)c1ccc(Cl)cc1)CS2 (configuration not stated) the results were Vaccinia Venus -16% and Vaccinia mCherry -17%.
Screening O=C1NC(=O)C(=C2CCOC2=O)N1 returned Vaccinia Venus -6% and Vaccinia mCherry -13%.
For O=C(CSc1nnc(CNC(=O)C23CC4CC(CC(C4)C2)C3)n1-c1ccccc1)Nc1ccccc1 the results were Vaccinia Venus -19% and Vaccinia mCherry -19%.
Cc1ccc(C(=O)NCCNC(=O)c2ccccc2)cc1 was read as Vaccinia Venus 2% and Vaccinia mCherry 5%.
For COc1ccc(C(=O)c2cn(Cc3ccccc3F)c3cc4c(cc3c2=O)OCCO4)cc1OC the results were Vaccinia Venus -12% and Vaccinia mCherry -12%.
`COc1ccccc1Nc1nc(N)nc(CN2CCC(C)CC2)n1` gave Vaccinia Venus -16% and Vaccinia mCherry inactive.
For COc1cc([N+](=O)[O-])cc2sc(NC(=O)C3CC3)nc12 the results were Vaccinia Venus -8% and Vaccinia mCherry -10%.
`C[C@H](CO)N1C[C@H](C)[C@@H](CN(C)C(=O)NC2CCCCC2)Oc2c(cccc2N(C)C)C1=O` gave Vaccinia Venus -16% and Vaccinia mCherry inactive.
For COc1ccc2nc(N(Cc3cccnc3)C(=O)c3ccc(Cl)cc3)sc2c1 the results were Vaccinia Venus -5% and Vaccinia mCherry -15%.
Screening COc1ccc2c(c1OC)C(=O)OC2C1c2cc3c(cc2CCN1C)OCO3 (configuration not stated) returned Vaccinia Venus inconclusive and Vaccinia mCherry -6%&-10%.
For Cc1cccc(Nc2nc(NCc3ccco3)nc(N)c2[N+](=O)[O-])c1 the results were Vaccinia Venus 0% and Vaccinia mCherry -15%.
Screening COc1cc(/C=N/NS(=O)(=O)c2ccc(C)c([N+](=O)[O-])c2)cc([N+](=O)[O-])c1O returned Vaccinia Venus -7% and Vaccinia mCherry inactive.
For C#Cc1ccc([C@@H]2C=C(C(=O)Nc3ccccc3)O[C@H](OCC)[C@H]2CCCO)cc1 the results were Vaccinia Venus inconclusive and Vaccinia mCherry inactive.
For CC(C)Oc1ccc(C(=O)Nc2nonc2-c2ccc(OC(C)C)cc2)cc1 the results were Vaccinia Venus -21% and Vaccinia mCherry -16%.
`CCOC(=O)C1CCCN(CC(O)COc2cccc(C)c2)C1` (configuration not stated) gave Vaccinia Venus -9% and Vaccinia mCherry -14%.
For COc1ccc(CN2CCN(Cc3c[nH]c4ccccc34)CC2)cc1OC the results were Vaccinia Venus -14% and Vaccinia mCherry inconclusive.
`CN(C(=O)COC(=O)CSc1ccc([N+](=O)[O-])cc1)C1CCS(=O)(=O)C1` (configuration not stated) gave Vaccinia Venus -9% and Vaccinia mCherry -9%.
Screening Cc1cccc(Nc2nn3c(=O)c4cc5c(cc4nc3s2)OCO5)c1 returned Vaccinia Venus 3% and Vaccinia mCherry 0%.

Three compounds already listed, sorted by count of non-hydrogen atoms, smallest number first:
For Cc1cccc(Nc2nc(NCc3ccco3)nc(N)c2[N+](=O)[O-])c1 the results were Vaccinia Venus 0% and Vaccinia mCherry -15%.
For COc1ccc(CN2CCN(Cc3c[nH]c4ccccc34)CC2)cc1OC the results were Vaccinia Venus -14% and Vaccinia mCherry inconclusive.
`C[C@H](CO)N1C[C@H](C)[C@@H](CN(C)C(=O)NC2CCCCC2)Oc2c(cccc2N(C)C)C1=O` gave Vaccinia Venus -16% and Vaccinia mCherry inactive.

Among those listed so far, 2 have fluorine.
O=C(/C=C/Nc1ccc(F)c(Cl)c1)c1ccco1 was read as Vaccinia Venus inconclusive.
For COc1ccc(C(=O)c2cn(Cc3ccccc3F)c3cc4c(cc3c2=O)OCCO4)cc1OC the results were Vaccinia Venus -12% and Vaccinia mCherry -12%.

Later entries
Screening Cn1c(=O)c2[nH]c(N3CCOCC3)nc2n(-c2ccccc2)c1=O returned Vaccinia Venus -3% and Vaccinia mCherry -19%[1.46 µM].
Nc1ccc(-c2nc3ccc(-c4nc5ccccc5o4)cc3[nH]2)cc1 was read as Vaccinia Venus -5% and Vaccinia mCherry -10%.
For CC1(CCl)N([O-])C2=C(CCCC2)[N+]1=O (configuration not stated) the results were Vaccinia Venus inconclusive and Vaccinia mCherry inconclusive.
Screening CC(C)N1CCN(Cc2cccc3c2OCO3)CC1CCO (configuration not stated) returned Vaccinia Venus 0% and Vaccinia mCherry inactive.
`CCC(=O)Nc1ccc(Nc2ccccc2)cc1` gave Vaccinia Venus 2% and Vaccinia mCherry -2%.
CCCCCC1CC(CC(=O)NC(=S)Nc2ccccc2Cl)C(=O)O1 (configuration not stated) was read as Vaccinia Venus -12% and Vaccinia mCherry 9%.
`Cc1cc(C(C2C(=O)CC(C)(C)CC2=O)C2C(=O)CC(C)(C)CC2=O)cc(C)c1OC(F)F` gave Vaccinia Venus 4% and Vaccinia mCherry -5%.
Screening Cc1cc(C)cc(NS(=O)(=O)c2ccc3c(c2)NC(=O)C(C)S3)c1 (configuration not stated) returned Vaccinia Venus -11% and Vaccinia mCherry -13%.
CCOc1ccccc1CNC(=O)c1ccc(-n2c(C)cc3c2CCC(C)C3)cc1 (configuration not stated) was read as Vaccinia Venus -13% and Vaccinia mCherry -22%.
`O=C(CCNC(=O)c1ccc(Cl)cc1)Nc1ccccc1N1CCCCC1` gave Vaccinia Venus -12% and Vaccinia mCherry -22%.
Screening Cc1cc(=O)n(Cc2c(F)cccc2Cl)c2c1c(C)nn2C returned Vaccinia Venus -1% and Vaccinia mCherry -18%.
Cc1nc2ccc(NC(=O)CSc3nnc(C)s3)cc2[nH]1 was read as Vaccinia Venus 1% and Vaccinia mCherry inactive.
`CCCS(=O)(=O)c1cn2cccc(N)c2c1S(=O)(=O)CCC` gave Vaccinia Venus 15% and Vaccinia mCherry -3%.
For Cc1ccccc1-c1nn(-c2ccc(F)cc2F)cc1CNC1CC1 the results were Vaccinia Venus 19% and Vaccinia mCherry -23%.
Screening COc1cc(-c2cnc3c(NC=O)cc(-c4ccccc4)cn23)cc(OC)c1OC returned Vaccinia Venus inconclusive and Vaccinia mCherry -23%.
For O=C(NCCc1c[nH]c2ccc(Cl)cc12)c1cccnc1 the results were Vaccinia Venus inconclusive and Vaccinia mCherry -29%.
`COc1ccc(C(=O)CC2(O)C(=O)N(Cc3ccccc3)c3ccc(Br)cc32)cc1` (configuration not stated) gave Vaccinia Venus -13% and Vaccinia mCherry -21%.
Cc1cccc(Sc2ccc([N+](=O)[O-])cc2[N+](=O)[O-])n1 was read as Vaccinia Venus -28% and Vaccinia mCherry -29%.
`COc1ccc(NC(=O)N2CCC(c3nc4ccccc4[nH]3)CC2)cc1` gave Vaccinia Venus -1% and Vaccinia mCherry inactive.
`COC(=O)c1ccc(NC(=O)Cn2cnc3c2c(=O)n(C)c(=O)n3C)cc1` gave Vaccinia Venus -6% and Vaccinia mCherry -16%.
Screening CCOC(=O)c1c(=O)n(O)c2ccc(OC)cc2[n+]1[O-] returned Vaccinia Venus 2%.
COc1ccc(CN(C)S(=O)(=O)c2nnc(NC(=O)C(C)C)s2)cc1OC was read as Vaccinia Venus -20% and Vaccinia mCherry -3%.
Screening CN1CCCN(C(=O)CC2(CC(=O)O)CCCCC2)CC1 returned Vaccinia Venus 6% and Vaccinia mCherry inactive.
Screening COc1cc(/C=N\Nc2nc(-c3ccc(C)cc3)c(NC(C)=O)s2)ccc1O returned Vaccinia Venus -17% and Vaccinia mCherry -32%.
CC(=O)NC12CC3CC(C)(C1)CC(NC(C)=O)(C3)C2 was read as Vaccinia Venus -17% and Vaccinia mCherry inactive.
Screening COc1ccc(NCc2cc3cc(OC)ccc3[nH]c2=O)cc1 returned Vaccinia Venus -16% and Vaccinia mCherry -30%.
`O=Nc1nc2ncccn2c1-c1ccccc1` gave Vaccinia Venus -3% and Vaccinia mCherry inactive.
Screening Cc1ccc(NS(=O)(=O)c2ccc(-c3coc(C)n3)cc2)c(Cl)c1 returned Vaccinia Venus -9% and Vaccinia mCherry inactive.
`CCOc1ccc(C(=O)N(Cc2cc(OC)c(OC)c(OC)c2)c2ccccn2)cc1` gave Vaccinia Venus inconclusive and Vaccinia mCherry -25%.
`COc1ccccc1/C=N/NC(=O)c1c(-c2ccccc2)noc1C` gave Vaccinia Venus -15% and Vaccinia mCherry -1%.
`Cc1noc(C)c1COC(=O)c1cccc(N(C)C)c1` gave Vaccinia Venus 1% and Vaccinia mCherry -20%.
For CC(C)(C)OC(=O)N1CCC(c2c(C(=O)N3CCN(c4ncccn4)CC3)cnn2-c2ccc(F)cc2)CC1 the results were Vaccinia Venus -4% and Vaccinia mCherry -2%.
Screening Cn1ccc2c(-c3ccc(C(=O)O)cc3)cc3c(c21)C1CCC3O1 (configuration not stated) returned Vaccinia Venus 6% and Vaccinia mCherry inactive.
`Cc1ccc(C)c(Cn2c(=O)n(CC3CCC(C(=O)N4CCOCC4)CC3)c(=O)c3sccc32)c1` (configuration not stated) gave Vaccinia Venus -27% and Vaccinia mCherry inconclusive.
`COc1ccc(C(CCN2CCCC(C)C2)c2c(OC)cc(OC)c3c(C)cc(=O)oc23)cc1` (configuration not stated) gave Vaccinia Venus -24% and Vaccinia mCherry 4%.
`N#Cc1ccc(Oc2ccc(C(F)(F)F)cc2NC(=O)c2ccc(F)cc2)cc1` gave Vaccinia Venus 11% and Vaccinia mCherry inactive.
For CCN(CC)S(=O)(=O)c1ccc2c(c1)nc(CCC(=O)OCC(=O)Nc1cc(Cl)cc(Cl)c1)n2C the results were Vaccinia Venus -4% and Vaccinia mCherry -11%.
O=C(Nc1ccc(F)cc1)c1ccc(-n2cnnc2)cc1 was read as Vaccinia Venus -9% and Vaccinia mCherry -9%.
COc1cccc(C(C)N(C)Cc2nc(-c3ccoc3)oc2C)c1 (configuration not stated) was read as Vaccinia Venus -10% and Vaccinia mCherry inactive.
`CCOc1ccc(-c2cc(C)n3nc(C(N)=O)cc3n2)cc1` gave Vaccinia Venus -20% and Vaccinia mCherry -3%.
Cc1nn(Cc2cccc(C(N)=O)c2)c(C)c1Br was read as Vaccinia Venus -20% and Vaccinia mCherry -21%.
